Source: PubChem BioAssay (several laboratories)
RGS16-Gao HTS: regulators of human RGS16-Galphao interaction | O15492+P09471 | bead-based flow cytometry RGS16-Galphao binding, fluorescence; actives lie on both sides | binding response (% of control), % at 10 µM | hit rate 0.38% among 220,000 | AID 1441;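 active = below 25% or above 175%, edge rows of some plates excepted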;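 note: Galphao activated by GDP with aluminum fluoride before binding; 100% = wells without compound and 0% = beads without RGS; some results beyond the cut were filed as inactive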
PKD1 kinase inh: PKD1 (human) kinase inhibition; PKD1 kinase fluorescence polarization assay; inhibition, %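 (about 10 µM by stock and volumes)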; hit rate 0.056% among 200,000;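 active = inhibition of 50% or more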;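 note: controls were vehicle for no effect and a reference inhibitor for full effect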
Target sequence (Q15139 whole entry, looked up): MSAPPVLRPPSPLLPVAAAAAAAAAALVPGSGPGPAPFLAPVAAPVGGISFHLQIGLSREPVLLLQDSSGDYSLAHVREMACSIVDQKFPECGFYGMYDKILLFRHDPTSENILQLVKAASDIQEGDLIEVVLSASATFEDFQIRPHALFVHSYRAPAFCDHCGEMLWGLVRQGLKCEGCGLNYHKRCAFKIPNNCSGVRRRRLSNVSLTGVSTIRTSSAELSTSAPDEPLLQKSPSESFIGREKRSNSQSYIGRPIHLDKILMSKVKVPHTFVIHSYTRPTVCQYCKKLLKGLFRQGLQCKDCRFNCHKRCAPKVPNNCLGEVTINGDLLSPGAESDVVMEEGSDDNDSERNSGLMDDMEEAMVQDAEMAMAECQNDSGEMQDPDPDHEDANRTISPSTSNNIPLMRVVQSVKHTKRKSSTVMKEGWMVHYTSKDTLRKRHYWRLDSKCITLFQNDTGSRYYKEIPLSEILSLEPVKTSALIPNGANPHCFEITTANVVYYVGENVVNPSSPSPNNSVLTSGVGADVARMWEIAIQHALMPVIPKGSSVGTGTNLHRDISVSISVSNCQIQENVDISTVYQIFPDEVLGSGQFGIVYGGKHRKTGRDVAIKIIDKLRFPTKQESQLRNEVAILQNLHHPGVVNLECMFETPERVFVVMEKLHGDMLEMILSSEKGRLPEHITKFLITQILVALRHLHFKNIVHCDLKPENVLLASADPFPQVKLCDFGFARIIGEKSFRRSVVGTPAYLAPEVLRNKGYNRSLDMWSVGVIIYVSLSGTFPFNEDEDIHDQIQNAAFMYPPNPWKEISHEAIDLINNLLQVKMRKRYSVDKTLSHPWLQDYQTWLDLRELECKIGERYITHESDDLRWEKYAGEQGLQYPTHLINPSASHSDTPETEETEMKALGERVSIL
GALR2 ag: GALR2 (human) receptor agonism. O43603. hit rate 0.48% among 140,000. AID 803. GALR2-expressing cells, agonist activation read-out. activation, %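 (tested at 5 µM)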;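 active = above mean plus 3 SD of all compounds, about 5% in these data, not always enough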;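 note: 0% = vehicle buffer wells and 100% = reference agonist at full effect; tested in CHO reporter cells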
Insulin prom inh: TRM-6 insulin promoter activity inhibition; TRM-6 cells (human fetal islet line), insulin promoter-eGFP reporter, imaging; reporter expression induced with tamoxifen; inhibition, % at 2 µM; hit rate 0.9% among 130,000; AID 1273;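 active = inhibition above the mean plus 3 SD, with well images judged a real hit on visual review, cut at about 60% in these data, passing the limit was not always enough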
HSV augment: increases HSV replication in cells | HSV replication augmentation in cells, fold increase | maximum fold increase | hit rate 0.005% among 220,000 | AID 1956;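 active = peak rise of 1.5-fold or more in the series; tested in PC3 cells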;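 note: first round at 10 µM; read as green reporter fluorescence; hits show the peak of a series up to 25 µM; 1 = signal of infected wells without compound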
Insulin prom inh cell count: recorded beside Insulin prom inh, whose call it bears; normalized cell count, %; measured here: cell count, toxicity; reference of the scale not given here;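 cells exposed to compound for 48 h; stained nuclei by imaging scaled within each plate; lower means fewer cells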
HSV augment primary fold: recorded beside HSV augment, whose call it bears; fold increase; compound at 10 µM; measured here: primary screen fold increase 10 uM; tested in PC3 cells;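 GFP signal in the first replicate; 1 = infected wells without compound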
Numbers without * were called inactive; i = inactive; / = no result given.

SMILES	RGS16-Gao HTS	PKD1 kinase inh	GALR2 ag	Insulin prom inh	Insulin prom inh cell count	HSV augment	HSV augment primary fold
Cc1cc(C(=O)NCc2ccccc2)c(=O)[nH]c1C	93	-8	0.0	73*	98*	i	0.77
CCOc1ccc(S(=O)(=O)NCCSCc2ccco2)cc1	106	0	-1.0	44	61	i	1.1
CCc1n[nH]c(=S)n1/N=C/c1cc(Br)c(OC)cc1OC	99	-12	0.4	30	88	i	0.83
O=C(Cn1c(SCC(=O)NC2CCCC2)nnc1-c1ccncc1)Nc1ccc2c(c1)OCO2	106	8	-1.5	-34	72	i	0.94
CCC(CC)C(=O)NCCc1cc2cc(C)c(C)cc2[nH]c1=O	101	-7	-1.5	/	/	i	0.75
O=C(Nc1cccc(C(F)(F)F)c1)c1ccc2nc(-c3ccco3)c(-c3ccco3)nc2c1	188	4	1.1	-4	57	i	1.1
CCOC(=O)c1sc(=S)n(-c2cc(F)ccc2F)c1N	74	3	-0.9	38	124	i	1.1
C[C@H](NS(=O)(=O)c1ccccc1)C(=O)OCC(=O)NC(=O)Nc1ccc2c(c1)OCCO2	103	3	0.2	-8	132	i	0.95
COCCNC(=S)N/N=C(\C)c1cc2ccccc2o1	104	-3	-1.1	-113	123	i	0.87
COc1ccc(NC(=O)C2CC(=O)N/C(=N/N=C/c3ccco3)S2)cc1 (configuration not stated)	101	/	/	/	/	i	0.99
CCOC(=O)c1[nH]c(C)c(C(=O)C(C)C)c1C	102	1	-0.3	61	139	i	0.96
O=C(COC(=O)c1ccc(CO)cc1)Nc1ccc(OC(F)F)cc1	105	-1	/	20	51	i	0.93
Cc1ccc2oc(=O)c3cc(C(=O)NCCCN4CCc5ccccc5C4)sc3c2c1	109	7	0.0	7	104	/	/
COc1cc(OC)cc(-c2nc(=S)n3ccsc3n2)c1	79	-5	/	/	/	i	0.8
O=[N+]([O-])c1cc(Cl)ccc1N1CCOCC1	107	-1	/	22	71	i	0.93

Exported as a markdown table: part of the list above
| SMILES | RGS16-Gao HTS | PKD1 kinase inh | GALR2 ag | Insulin prom inh | Insulin prom inh cell count | HSV augment | HSV augment primary fold |
| --- | --- | --- | --- | --- | --- | --- | --- |
| COc1ccc(NC(=O)C2CC(=O)N/C(=N/N=C/c3ccco3)S2)cc1 (configuration not stated) | 101 | / | / | / | / | i | 0.99 |
| CCOC(=O)c1[nH]c(C)c(C(=O)C(C)C)c1C | 102 | 1 | -0.3 | 61 | 139 | i | 0.96 |

The list continues:
SMILES	RGS16-Gao HTS	PKD1 kinase inh	GALR2 ag	Insulin prom inh	Insulin prom inh cell count	HSV augment	HSV augment primary fold
COc1ccc(N2C(=O)C3C(C2=O)C2C=CC3C23CC3)c([N+](=O)[O-])c1 (configuration not stated)	103	0	/	-129	123	i	0.89
O=[N+]([O-])c1ccc(-n2ccnc2)cc1	99	/	/	/	/	i	0.98
O=C(NNC(=S)Nc1ccc(F)cc1)c1cccc([N+](=O)[O-])c1	105	/	/	/	/	i	0.86
COc1ccc(N2CCN(S(=O)(=O)c3cccc(C(F)(F)F)c3)CC2)cc1	137	-3	-1.7	0	115	i	0.93
COc1cccc2cc(C(N)=O)oc12	95	1	/	5	121	i	0.93
Cc1cc(N)c2cc(NC(=O)/C=C/c3ccccc3Cl)ccc2n1	103	/	/	/	/	i	0.56
CCOc1ccc(C2CC(=O)NC3=C2C(=O)CCC3)cc1Cl (configuration not stated)	104	-9	-1.0	14	95	i	1
CC(=O)Nc1ccccc1OCc1cnc(Cl)s1	100	-5	/	/	/	i	0.95
Cc1cccc(N(CC(=O)NC(C)(C)C)C(=O)CNC(=O)c2cccs2)c1	113	-6	/	/	/	i	0.86
O=C(CN1CCN(c2nc(-c3ccccc3)cs2)CC1)NCc1ccc2c(c1)OCO2	102	2	-1.6	/	/	i	0.89
O=C(/C=C/c1ccc([N+](=O)[O-])cc1)N(c1ccccn1)C1CCCCC1	97	6	/	0	176	i	0.93
O=C(NCCc1cccs1)C1CC(c2ccccc2F)=NO1 (configuration not stated)	99	/	/	/	/	i	0.95
CCc1ccc(CNCCSc2nnnn2C)cc1	103	0	-2.6	-18	97	i	0.92
COCCCNC(=O)CCCn1c(=O)[nH]c2ccccc2c1=O	103	0	0.7	/	/	i	0.9
COCCNC(=O)C(c1ccccc1F)N(C(=O)C(=O)NC1CCCC1)C1CCCCC1 (configuration not stated)	105	-5	/	/	/	i	0.97
COC(=O)c1ccc2c(=O)n(CC3CCCO3)c(SCC(=O)Nc3ccccc3Cl)nc2c1 (configuration not stated)	108	2	-1.6	-7	96	i	0.85
Cc1ccc(NC(=O)Nc2nc(-c3ccc(C)s3)cs2)cc1	99	1	0.0	/	/	i	0.76
Cc1cccc[n+]1CC(=O)Nc1ccc([N+](=O)[O-])cc1Cl	96	-2	-1.8	-7	61	i	1.1
NC(=O)c1ccccc1N(Cc1ccccc1)S(=O)(=O)c1ccccc1	99	-6	/	-42	100	i	0.93
COc1ccc(-c2nnn(CC(=O)NCCc3c[nH]c4ccccc34)n2)cc1OC	114	-1	-3.6	-42	84	i	0.78
CCc1ccc(-c2cc(C(=O)N3N=C(C(F)F)CC3(O)C(F)F)c3ccccc3n2)cc1 (configuration not stated)	91	7	1.3	7	109	i	0.96
COc1ccc(S(=O)(=O)n2nc(-c3ccc(Cl)cc3)cc2N)cc1OC	115	-10	-0.3	/	/	i	0.82
COc1ccc(-n2c(C)ccc2C)c([N+](=O)[O-])c1	105	2	/	/	/	i	0.88
CCOC(=O)c1oc2c(CN3CCCCC3C)c(O)ccc2c(=O)c1-c1ccc(OC)c(OC)c1 (configuration not stated)	96	-2	2.6	52	103	i	0.97
O=C(COc1ncnc2ccc(Br)cc12)Nc1ccc(N2CCOCC2)cc1	101	-5	-0.4	/	/	i	0.96
Cc1ccc(CNC(=O)C2c3ccccc3C(=O)N3CCc4ccccc4C23)o1 (configuration not stated)	99	1	-3.3	/	/	i	0.94
O=C(NCc1ccc(F)cc1)C(c1ccncc1)N(C(=O)c1csnn1)C1CC1 (configuration not stated)	103	2	-0.8	-54	55	i	1.1
Cc1cccc(C(=O)NCCN(C)C)c1	106	4	-0.8	6	116	i	0.91
C=C(C)c1cccc(C(C)(C)NC(=O)N2CCC(C)CC2)c1	102	1	-3.7	-29	72	i	0.84
Cn1c(N)c(C(=O)CCl)c(=O)n(Cc2ccccc2)c1=O	104	-4	-2.7	18	104	i	0.9
CCOC(=O)N1CCN(C(=O)c2ccc3c(c2)NC(=O)C(N2CCOCC2)S3)CC1 (configuration not stated)	101	-9	-1.0	-23	90	/	/
Cc1nc(Cl)c2c(n1)NC(=O)CO2	100	/	/	/	/	i	1
C=C(C)c1nc(N)nc(N)n1	102	2	0.0	/	/	i	0.93
CCN1CCN(Cc2ccc(NC(=O)c3cc(NC(=O)C(=O)c4c[nH]c5ccccc45)cc(OC)c3)cc2C(F)(F)F)CC1	102	/	/	/	/	i	0.65
CCCCSc1nnc2nc(C)cc(C)n12	93	2	-0.8	/	/	i	0.75
O=C(N/N=C/c1cccc([N+](=O)[O-])c1)c1ccc2c(c1)OCCO2	103	2	-0.2	/	/	i	0.79
COc1ccc(S(=O)(=O)N2CCN(c3ccc(C)cc3C)CC2)cc1OC	99	-4	-1.8	/	/	i	1
O=C(COC(=O)c1cc([N+](=O)[O-])ccc1NCCO)NCc1cccs1	109	-4	/	58	68	i	1
CC1(OC(=O)CCc2ccccc2)C(=O)C=C2C=C(c3ccc(C#N)cc3)N(CCc3c[nH]c4ccccc34)C=C2C1=O (configuration not stated)	95	/	/	/	/	i	0.9
COC(=O)c1sc(S(=O)(=O)Nc2ccc(C)c(C)c2)c(C(=O)OC)c1C	28	4	-0.7	-50	43	i	1.1
COc1ccc(CC(=O)Oc2cc(C)[nH]c(=O)c2[N+](=O)[O-])cc1	91	-13	-1.4	-47	145	i	0.91
CCOC(=O)c1sc2nc3c(cc2c1N)COC(C)(C)C3	100	-14	-0.1	81*	107*	i	0.88
CCn1cc(C(=O)NC(=S)Nc2cccc(O)c2)cn1	103	-6	-1.9	13	80	i	0.97
CC(=O)[C@@H]1[C@@H](C(=O)c2ccc(F)cc2)[C@]2(C(=O)Nc3ccccc32)[C@H]2C=Cc3cc(F)ccc3N12	102	/	/	/	/	i	1
COc1ccccc1C(=O)Nc1cc(-c2nn3c(C)nnc3s2)ccc1C	/	-15	0.2	/	/	/	/
CN1/C(=C\C(=O)C(F)F)C(C)(C)c2ccccc21	111	-9	0.5	-5	97	i	0.96
Cc1cc(-c2ccccc2)nc(N2CCN(c3ccccn3)CC2)n1	99	12	-3.1	/	/	i	0.98
Cc1ccc(N(CC(=O)N2CCOCC2)S(C)(=O)=O)cc1C	101	-2	-2.8	-15	106	i	0.92
O=C(c1cccs1)N(c1ccc(Cl)cc1)C1C=CS(=O)(=O)C1 (configuration not stated)	108	-5	/	/	/	i	0.97
CC(C)=CCN1CCN(Cc2cccn2-c2ccccn2)CC1CCO (configuration not stated)	101	2	/	/	/	i	0.89
CCNC(=S)NNC(=O)c1c(Cl)c(C)nn1C	103	-4	-1.3	58	107	i	0.8
COc1cc(/C=N/NC(=O)c2csc3c2CCCC3)cc(OC)c1O	108	-5	-0.5	19	116	i	0.85
O=C1CCC(/C=C/c2ccccc2)=NN1Cc1ccccc1Cl	103	0	-1.0	/	/	i	0.86
CNc1nc2ccccc2n1N	97	0	0.9	17	115	/	/
CCn1c(/C=C2\C(=O)N(C(C)C)c3ccccc32)nc2ccccc2c1=O	93	/	/	/	/	i	0.96
CCc1ccc(C(=O)NCc2ccc(Cl)cc2)cc1	96	-7	-1.0	14	80	i	1.2
O=C(CCSc1ccccc1)Nc1nccs1	97	4	-0.9	44	97	i	0.95
Cc1ccc(S(=O)(=O)Nc2nc(C)cc(-n3nc(C)cc3C)n2)cc1	96	-2	-0.2	-21	197	/	/
O=C(Cc1cccs1)N1CCC(c2nc3c(nnn3Cc3ccccc3)c(=O)[nH]2)CC1	103	-6	-2.5	/	/	i	0.9
COC(=O)c1c(SCc2ccc(C#N)cc2)nc(=O)[nH]c1C	98	-6	/	26	151	i	0.88

Compound profiles, as listed above. Order of screens: RGS16-Gao HTS, PKD1 kinase inh, GALR2 ag, Insulin prom inh, Insulin prom inh cell count, HSV augment, HSV augment primary fold
`CC(C)=CCN1CCN(Cc2cccn2-c2ccccn2)CC1CCO` (configuration not stated) as listed: 101, 2, /, /, /, i, 0.89
`Cc1ccc(S(=O)(=O)Nc2nc(C)cc(-n3nc(C)cc3C)n2)cc1` as listed: 96, -2, -0.2, -21, 197, /, /
`CNc1nc2ccccc2n1N` as listed: 97, 0, 0.9, 17, 115, /, /
`CN1/C(=C\C(=O)C(F)F)C(C)(C)c2ccccc21` as listed: 111, -9, 0.5, -5, 97, i, 0.96
`COC(=O)c1c(SCc2ccc(C#N)cc2)nc(=O)[nH]c1C` as listed: 98, -6, /, 26, 151, i, 0.88

Going on with the list:
SMILES	RGS16-Gao HTS	PKD1 kinase inh	GALR2 ag	Insulin prom inh	Insulin prom inh cell count	HSV augment	HSV augment primary fold
O=S(=O)(CCN1C=CC(C(F)(F)F)=NCC1)c1ccc(Cl)cc1Cl	103	/	/	/	/	i	1.3
CC(OC(=O)c1cn(-c2ccccc2)nc1-c1cccnc1)C(N)=O (configuration not stated)	99	-3	/	/	/	i	1.1
CCOC(=O)N1CCN(C(=O)C2CCN(S(C)(=O)=O)CC2)CC1	98	-9	-0.8	10	75	i	1
CCN(CC)S(=O)(=O)c1ccc2c(c1)c(=O)c(C(=O)NCc1ccco1)cn2C	99	6	/	/	/	i	0.96
C=CCc1cccc(C=Nc2cc(Br)ccc2O)c1O	104	-14	-0.4	-7	107	i	0.9
CC(C)OCCCNC(=S)Nc1ccc2nc3n(c(=O)c2c1)CCCCC3	102	0	/	47	87	i	0.86
COc1cccc(N/C(N)=N/c2nc(CSc3ccccn3)cc(=O)[nH]2)c1	101	5	/	-464	11	i	0.71
Cc1nc([N+](=O)[O-])c(C(=O)OCc2ccc(C#N)cc2)n1C	105	5	/	17	184	i	0.93
CC(=O)NC1C(=O)N(Cc2ccccc2)c2ccc(Br)cc21 (configuration not stated)	110	/	/	/	/	i	0.9
COc1ccc(C(=O)c2sc(Nc3cccc(OC)c3)c(C(=O)Nc3cccc(C)c3C)c2N)cc1	103	1	16*	/	/	i	0.92
COc1ccc2[nH]c(=O)c(CN(CCc3ccccc3)Cc3nnnn3CC3CCCO3)cc2c1 (configuration not stated)	100	-7	-2.3	/	/	i	0.92
CCC(=O)NNc1ncnc2c1cnn2-c1ccccc1	92	6	/	-67	114	i	0.84
O=C(Nc1nc2ccccc2n1CCN1CCCC1)c1ccc(Cl)cc1	149	-12	-1.9	-22	67	i	0.73
CCOC(=O)C1CCN(c2nc3ccccc3n2CC(=O)c2ccccc2)CC1	101	1	/	-41	108	i	0.96
CCCCCCNc1c([N+](=O)[O-])cc(C)cc1[N+](=O)[O-]	/	-1	-0.4	-23	102	i	1
Cc1ccc(-c2cc(N)n(-c3ccc(F)cc3)n2)cc1	100	-2	/	/	/	i	0.75
